# Screening results (PubChem)
# Bead autofluor: flagged as autofluorescent in microsphere protease counterscreen; compound autofluorescence counterscreen, microsphere flow cytometry; hits give high values; fluorescence intensity (concentration not given with the values); 360,000 compounds, 3.1% hits; AID 624483;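 active = at least 3 SD above the mean of all compounds, about 16000 in these data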;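 note: 100 nL of 1 mM stock went into each well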
# An asterisk follows results filed as active. These rows are one share of the data; the hit share may differ from the screen's.
compound	Bead autofluor
CC(C)(C)c1ccc(S(=O)(=O)NC(=O)C2(C)CCN2C(=O)Cc2cccc3ccccc23)cc1 (centres undefined)	3933
CCNC(=O)C1(C)CCCN(Cc2cccc(Oc3ccccc3)c2)C1 (centres undefined)	5914
CC(C)Oc1cc(F)ccc1-c1cc(C(=O)NCc2ccccn2)[nH]n1	3069
COc1ccc2c(=O)c3c(=O)n(Cc4ccccc4)c(C(C)C)nc3oc2c1	3502
C[C@H]1CN([C@@H](C)CO)C(=O)CCCn2nncc2CO[C@@H]1CN(C)Cc1ccc(Oc2ccccc2)cc1	3025
COc1ccc(OC)c(S(=O)(=O)NC(=O)C2(C)CCN2C(=O)Cc2ccccc2)c1 (centres undefined)	3846
Cn1cnc(S(=O)(=O)N2CCCCC2c2cc(C(=O)NCc3ccc(Cl)c(Cl)c3)no2)c1 (centres undefined)	3411
C[C@@H]1CN([C@H](C)CO)C(=O)c2c(c3ccccc3n2C)-c2ccccc2CO[C@@H]1CN(C)Cc1ccc(O)cc1	4124
C[C@@H]1CN([C@@H](C)CO)C(=O)c2cc(C#Cc3ccccc3)cnc2O[C@H]1CN(C)C(=O)c1ccccc1F	3384
CC(C)CC#Cc1ccc2c(c1)O[C@H](CN(C)C(=O)Nc1ccccc1)[C@@H](C)CN([C@H](C)CO)S2(=O)=O	3960
COc1ccc(CNC(=O)C2CCCN2C(=O)Nc2cccc(Cl)c2)cc1 (centres undefined)	3673
COc1ccc(OC)c(NC(=O)Nc2nc(C(N)CCc3ccccc3)cs2)c1 (centres undefined)	3675
CCNC(=O)C1CCCN(Cc2cc(C(F)(F)F)ccc2Cl)CC1 (centres undefined)	4208
Cc1ccc(C)c(C(O)c2ncc(-c3ccc4ccccc4c3)[nH]2)c1 (centres undefined)	3437
O=S1(=O)CC(N2CCN(CCO)CC2)CN1Cc1cn(Cc2ccccc2C(F)(F)F)nn1 (centres undefined)	6105
COc1ccc(-n2ncc3c(SCC(=O)OC(C)C)ncnc32)cc1	3654
CC(C)CN1Cc2cc(N3CCCCC3)ccc2-n2nncc2C1	6874
CCCNC(=O)c1cc2c(c(-c3cccc(-c4ccccc4F)c3)n1)[C@H](CCO)N(C(=O)CC1CC1)C2	6339
CC1=C(C(=O)N(C)C)CC(CC(=O)NC2CC2)C(=O)N1Cc1ccc(C(C)(C)C)cc1 (centres undefined)	3090
Cc1ccc(S(=O)(=O)N2CCC(=O)N([C@H](COCc3ccc(Cl)cc3Cl)Cc3ccccc3)CC2)cc1	4410

# As entered above.
# Bead autofluor with C[C@@H]1CN([C@@H](C)CO)C(=O)c2cc(C#Cc3ccccc3)cnc2O[C@H]1CN(C)C(=O)c1ccccc1F = 3384
# Bead autofluor with CC(C)CN1Cc2cc(N3CCCCC3)ccc2-n2nncc2C1 = 6874
# Bead autofluor with CC1=C(C(=O)N(C)C)CC(CC(=O)NC2CC2)C(=O)N1Cc1ccc(C(C)(C)C)cc1 (centres undefined) = 3090

# The results go on:
compound	Bead autofluor
CN(C)Cc1ccccc1CNC(=O)c1ccc(Cl)c(S(=O)(=O)NC2CC2)c1	3932
CC(C)OC(=O)N(C)C[C@@H]1OCc2cnnn2CCCC(=O)N([C@@H](C)CO)C[C@@H]1C	3665
CCNC(=O)C1CCCN(C(=O)c2ccc(C#N)cc2)CC1 (centres undefined)	3787
CC(C)(CN1CCCN(CC(C)(C)C(=O)O)C1=O)C(=O)O	3627
CCO/C(C)=N/Oc1cccc(N(C)C)c1	5560
COc1ccc(S(=O)(=O)N2CCN(CC(=O)N3CCNC3=O)CC2)cc1OC	3701
COC1OC2COC(c3ccccc3)OC2C2OC(c3ccccc3)OC12 (centres undefined)	3489
CC(OC(=O)C1COc2ccccc2O1)C(=O)c1ccccc1 (centres undefined)	3840
COc1ccc(CNC(=O)Nc2nnc([C@H]3C[C@H](O)[C@@H](CO)O3)s2)cc1	2876
CCCCc1c(-c2ccccc2F)ncn1CCc1ccccc1OC	6170
CC(C)NC(=O)C1(C)Cc2c(-c3cccc(C(N)=O)c3)ccnc2O1 (centres undefined)	3794
CCOC(=O)[C@]12CCC=C1N(CCC1=CCCCC1)C(=O)[C@H](CC(=O)NCc1cccs1)C2	4517
Cc1cccc(COC[C@H](CC(C)C)N2CCN(C(=O)c3ccc(C(C)(C)C)cc3)CCC2=O)c1	5903
CCCCNC(=O)C1c2ccccc2OCC(=O)N1CCCN1CCOCC1 (centres undefined)	5590
Cc1ccc(CNC(=O)c2ccc(S(=O)(=O)N3CCCCCC3)cc2)cc1	3339
Cc1cc(Cl)ccc1C(=O)C1CCCN(C(=O)c2ccc3c(c2)OCO3)C1 (centres undefined)	3310
CC1(C(=O)NS(=O)(=O)c2ccc(Br)cc2)CCN1C(=O)C1CCCCC1 (centres undefined)	3964
CC(NS(=O)(=O)c1cc2c3c(c1)CCN3C(=O)CC2)c1ccccc1 (centres undefined)	3931
O=S1(=O)CC(N2CC=CC2)CN1Cc1cn(Cc2ccccc2)nn1 (centres undefined)	5229
CC(C)(C)c1ccc(CC(=O)N2CCC2(C)C(=O)NS(=O)(=O)c2ccc(C#N)cc2)cc1 (centres undefined)	3773
COC(=O)[C@]12CCCCC=C1N(Cc1ccc(Cl)cc1Cl)C(=O)[C@H](CC(=O)NCC1CCCCC1)C2	4291
COc1ccc(NC(=O)CCNC(=O)N2CC(=O)Nc3ccccc32)cc1	3659
CC1=C(C(=O)N2CCCCCC2)CC(CC(=O)NC2CCCCC2)C(=O)N1Cc1ccccc1 (centres undefined)	5666
COc1ccc(S(=O)(=O)NC(=O)C2(C)CCN2C(=O)CCc2ccc(Cl)cc2Cl)cc1 (centres undefined)	3028
Nc1ccc(C(=O)Nc2ccc(Nc3ccncc3)cc2)c([N+](=O)[O-])c1	3071
COC(=O)CCCn1cc(CN2CC(N(C)C)CS2(=O)=O)nn1 (centres undefined)	5140
COC(=O)[C@@]1(Sc2ccc(C)cc2)CC(=O)N[C@@H]1c1ccc(C(F)(F)F)cc1	4449
O=C(CN1CCN(S(=O)(=O)c2ccc(Br)s2)CC1)NCC1CCCCC1	2895
CC1(C(=O)NS(=O)(=O)c2ccc3ccccc3c2)CCN1C(=O)CC1CCCCC1 (centres undefined)	3582
O=[N+]([O-])c1ccc(O)c(C=NN2CCCCC2)c1	3899
CCCCN1C(=O)C(CC(=O)NC2CCCC2)CC(C(=O)N(CC)CC)=C1C (centres undefined)	2863
COc1ccc(C(C)(O)c2nc(/C=C/c3ccccc3)cs2)cc1 (centres undefined)	4322
CCN(CC)C(=O)c1cccc(-c2csc(C(C)(NC(C)=O)c3ccccc3)n2)c1 (centres undefined)	3074
CC(C)c1ccc(CC(=O)N2CCC2(C)C(=O)NS(=O)(=O)c2ccc(Cl)s2)cc1 (centres undefined)	3399
FC(F)(F)c1ccccc1Cc1c(-c2cccc(Cl)c2)nc2ccc(Br)cn12	5665
Cc1ccc(Cl)cc1-c1cc(C(=O)NCC2CCCCC2)[nH]n1	3839
COc1ccc(S(=O)(=O)NNS(=O)(=O)c2ccc(OC)c(OC)c2)cc1OC	6064
COc1ccc(C(O)c2ncc(-c3ccccc3)[nH]2)cc1 (centres undefined)	2976
CC(=O)NCCNc1nc2cc(-c3ccsc3)sc2c(=O)n1C	3431
Cc1cn([C@H]2C[C@H](O)[C@@H](CNC(=O)[C@H](N)Cc3cscn3)O2)c(=O)[nH]c1=O	2977

# Exported with each value named: entries from further up
mol: COC(=O)[C@]12CCCCC=C1N(Cc1ccc(Cl)cc1Cl)C(=O)[C@H](CC(=O)NCC1CCCCC1)C2
  Bead autofluor: 4291
mol: COC(=O)CCCn1cc(CN2CC(N(C)C)CS2(=O)=O)nn1 (centres undefined)
  Bead autofluor: 5140
mol: O=[N+]([O-])c1ccc(O)c(C=NN2CCCCC2)c1
  Bead autofluor: 3899

# Remaining list, next part.
compound	Bead autofluor
CCc1nc2c(OCc3ccccc3)cccn2c1N(C)C(=O)Nc1ccccc1OC	3813
CCCNC(=O)c1cc(C2CCCCN2C(=O)c2ccc(C(C)C)cc2)on1 (centres undefined)	2829
Cc1ccc(NC(=C(C#N)C#N)c2ccccc2)cc1	3792
CCOC(=O)N(C)C[C@H]1OCc2cnnn2CCCC(=O)N([C@@H](C)CO)C[C@H]1C	3752
CCc1nc2ccc(C(=O)NCCCN(C)C)cn2c1N(C)CCCc1ccccc1	3508
Cc1cc(C)n2c(NC3CCCC3)c(-c3cccnc3)nc2n1	6480
FC(F)(F)c1nc2nccnc2[nH]1	3814
CC(C)=CCn1c2ccc(NC(=S)NC3CC3)cc2c(=O)n1C	3994
COC(=O)[C@@]1(Sc2ccc(C)cc2)CC(=O)N(C(=O)/C=C/c2ccccc2)[C@@H]1c1ccccc1	5706
Cc1ncoc1C(=O)NCC1=C(c2cccc3ccccc23)C[C@@H]2CC[C@H]1N2Cc1ccco1	3734
COC(=O)c1ccc2nc(-c3ccc(F)cc3)c(Cc3ccsc3)n2c1	6838
COc1ccc(Cn2cc(CN3CC(N4CCSCC4)CS3(=O)=O)nn2)cc1 (centres undefined)	4360
Cc1cc(C)cc(C(O)c2ncc(-c3ccc4ccccc4c3)[nH]2)c1 (centres undefined)	4211
COc1cccc(NC(=O)C2(C)CCN2Cc2cccc(OC)c2F)c1 (centres undefined)	3781
O[C@@H]1C[C@H](c2ccccc2)N(Cc2cccs2)C[C@H]1n1cc(C2CC2)nn1	3845
O=C(NCc1ccccn1)[C@@H]1CCCN1C(=O)[C@@H]1CCCN1	6078
COCCNC(=O)C1(C)CCN(Cc2ccc(C(C)C)cc2)C1 (centres undefined)	3477
COc1ccccc1Cc1c(-c2ccc(C)cc2)nc2c(C)cc(Br)cn12	7126
Cc1ccc(F)cc1C(=O)N1CCCC(c2cc(C(=O)NCc3ccccc3)no2)C1 (centres undefined)	3855
CC(C)CC(N)c1csc(Nc2ccc(C(F)(F)F)cn2)n1 (centres undefined)	3961
Cc1ccc(CNC(=O)C2CCN(S(=O)(=O)N3CCC(C)CC3)CC2)cc1	3713
FC(F)(F)c1cccc(-c2cc3nc(NC4CCCCC4)ccn3n2)c1	3771
COc1ccc(OC)c(NC(=O)CCNS(=O)(=O)c2ccc3c(c2)CC(C)N3C(C)=O)c1 (centres undefined)	3876
Cc1cn([C@H]2C[C@H](O)[C@@H](CCC(=O)NCCc3ccc4ccccc4c3)O2)c(=O)[nH]c1=O	5327
COc1ccc(CC(=O)Cc2ccc(OC)c(OC)c2)cc1OC	3522
COc1ccc(S(=O)(=O)N(C)C[C@H]2OCc3cn(nn3)CCCC(=O)N([C@@H](C)CO)C[C@@H]2C)cc1	4305
O=C(NC(c1ccccc1)c1ccsc1)C1CCN(Cc2ccccc2)CC1 (centres undefined)	3055
CCCCOCCCNC(=O)C[C@@H]1C[C@@]2(C(=O)OCC)CCC=C2N(Cc2ccccc2)C1=O	6023
Fc1cccc(-c2ccc3c(c2)CNCc2cnnn2-3)c1	5505
Clc1cccc(NC2=NCCS2)c1	2856
O=C(c1ccc(Cl)cc1)N1CCN(c2ccc(N3CCOCC3)nn2)CC1	3999
COc1cc2c(c(Br)c1N)-c1cc(Br)c(N)cc1C2=O	2772
CCC(c1nnnn1C1CCCCC1)N1CCC2(CC1)C(=O)NCN2c1ccccc1 (centres undefined)	4350
C[C@H]1CN([C@@H](C)CO)C(=O)CCCn2nncc2CO[C@H]1CN(C)S(=O)(=O)c1ccc2c(c1)OCCCO2	2843
CCCCC[C@H](C)N1C[C@@H](COCc2ccccc2)Oc2cc(N3CC[C@H](N(C)C)C3)ccc2S1(=O)=O	5923
CCOC(=O)C1(C)CCN1C(=O)c1csnn1 (centres undefined)	3560
CC(C)C[C@H]1CN([C@@H](CC(C)C)CN2CCC[C@@H]2CN2C(=S)NC[C@@H]2Cc2ccc(O)cc2)C(=S)N1CC1CCCCC1	5298
CC(C)CCNC(=O)[C@@H](Cc1ccccc1)NC(=O)CC[C@H]1O[C@@H](n2ccc(=O)[nH]c2=O)[C@H](O)[C@@H]1O	4181
CC1(C(=O)NS(=O)(=O)c2ccc(C#N)cc2)CCN1C(=O)C1(c2ccccc2)CCCC1 (centres undefined)	3768
O=Cc1ccc(N2CCN(S(=O)(=O)c3ccc4c(c3)CC(=O)N4)CC2)cc1	4589

# A different layout for two compounds above:
C[C@H]1CN([C@@H](C)CO)C(=O)CCCn2nncc2CO[C@H]1CN(C)S(=O)(=O)c1ccc2c(c1)OCCCO2
  Bead autofluor: 2843
CCCCC[C@H](C)N1C[C@@H](COCc2ccccc2)Oc2cc(N3CC[C@H](N(C)C)C3)ccc2S1(=O)=O
  Bead autofluor: 5923

# (listing goes on)
compound	Bead autofluor
C[C@@H]1CN([C@H](C)CO)C(=O)CCCn2nncc2CO[C@H]1CN(C)Cc1ccccc1	3416
CC1(C(=O)NS(=O)(=O)C2CC2)CCCN(C(=O)c2ccco2)C1 (centres undefined)	3051
O=C(Nc1ncccc1O)c1ccc(Cl)c(S(=O)(=O)N2CCCC2)c1	3524
O=S1(=O)CC(N2CCCC2)CN1Cc1cn(Cc2ccc(Cl)cc2)nn1 (centres undefined)	4126
COCCCN(Cc1cc(OC)c(OC)c(OC)c1)C(=S)Nc1cccc(Cl)c1	3668
Cc1ccc(C(=O)NCC(=O)Nc2ccccc2C)o1	4135
CCN(C1CCCCC1)S(=O)(=O)CCNC(=O)c1ccc(OC)cc1	4006
O=C1NC[C@@H](CCCCN2C[C@H](Cc3ccccc3)N(CCC3CCCCC3)C(=O)C2=O)N(CCc2ccccc2)C1=O	5575
CC(C)C[C@H]1CNC(=O)C(=O)N1C[C@H]1CCCN1C[C@H](Cc1ccc(O)cc1)N1C[C@H](CC(C)C)N(CC2CCCCCC2)C(=O)C1=O	4881
COc1ccc(CCC(=O)N2CCN(S(=O)(=O)c3ccc(OC)c([N+](=O)[O-])c3)CC2)cc1	3857
COc1ccc(OC)c(CC(=O)Nc2ccc3c(c2)c(=O)n(C)n3Cc2cccc(C(F)(F)F)c2)c1	3505
N#CCc1ccc(-c2cccc3nccn23)cc1	4020
CN(C)CCN1CCN(C(c2cc3ccccc3o2)c2nnnn2C(C)(C)C)CC1 (centres undefined)	5154
CC1(Cc2ccc3ccccc3n2)C(=O)Nc2ccc(OC(F)(F)F)cc21 (centres undefined)	2814
